Screening data from PubChem BioAssay.
fixLJ activator = B. multivorans fixK reporter activation; actives 0.3% (n = 29,000); B. multivorans fixK-promoter GFP reporter, 18 h; stronger effect = higher value; z-score (concentration not given with the values); AID 1918990;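 active = replicate mean overnight rise in green fluorescent reporter signal, 3 or more SD over negative controls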;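 note: score is relative to vehicle wells of the plate; 300 nL library stock went into each well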
Numbers without * were called inactive. The list is partial (hit frequency here may not be typical).

SMILES | fixLJ activator
Nc1ccc(S(=O)(=O)Nc2ccccn2)cc1 | -0.4
CC(C)c1nc(N2CCN(Cc3cccc(Cn4cccn4)c3)CC2)no1 | -0.03
CCn1cc(NC(=O)NCC2(c3cccc(F)c3)CCOCC2)c(C)n1 | 0.21
CCc1ccc(Nc2nn(-c3ccc(OC(F)(F)F)cc3)nc2C(C)=O)cc1 | -2.06
CCOc1ccc(CC(=O)Nc2c(C(=O)c3ccc(F)cc3)oc3ccccc23)cc1OCC | -1.37
CCc1cccc(C)c1Nc1c(-c2cccc(O)c2)nc2nc(C)cc(C)n12 | -2.19
CCOc1ccccc1OCCCCn1c(-c2ccc(Cl)cc2)nc2ccccc2c1=O | -0.12
COc1ccc(S(=O)(=O)Cc2ccc(C(=O)NC3CCCCC3)o2)cc1 | 0.51
CC(Sc1nc(=O)cc(N)n1CCc1ccccc1)C(=O)Nc1ccccc1C#N (stereo not drawn) | -0.75
CN(C)c1nc2c(c(=O)[nH]1)CCN(C(=O)c1scc3c1OCCO3)C2 | -1.2
CCc1ncnc(N2CCC(CNC(=O)c3cc4ccccc4o3)CC2)c1F | -0.71
COc1ccc(CC(=O)N(Cc2nc(-c3ccc(C)cc3)no2)C(C)C)cc1 | 0.23
Cc1cccc(C(=O)N2CCCC3(CCC(=O)N(Cc4cnc(C)cn4)C3)C2)c1 (stereo not drawn) | 0.51
O=C(NC1CCOCC1Oc1ccc(CO)cc1)c1ccc(O)cn1 (stereo not drawn) | -1.77
COc1cccc(-c2ccc3c(N)c(C(=O)c4ccc(Br)cc4)sc3n2)c1 | -5.05
CCc1ccc(C(=O)c2cn(Cc3ccccc3)c3cc(OC)c(OC)cc3c2=O)cc1 | 0.2
COc1ccc(NC(=O)c2ccc3oc(=O)c(S(=O)(=O)c4ccc(F)cc4)cc3c2)cc1OC | -0.41
CCOc1cccc(NC(=O)CSc2ncc(-c3ccccc3)[nH]2)c1 | 0
CC(=O)c1ccc(N2CCN(C(=O)Cn3ncc4c3-c3ccccc3OC4)CC2)cc1 | -1.43
CCN(CC)S(=O)(=O)c1ccc(C(=O)NCCSc2c(-c3ccc(C)cc3)[nH]c3ccccc23)cc1 | 1.56
CCOC(=O)c1c(NC(=O)c2nc(SC)ncc2Cl)sc(C)c1C | -1.58
O=C(NCCCO)c1nn(-c2ccc(Cl)cc2)nc1CO | -1.24
Cn1c(=O)n(C)c2cc(S(=O)(=O)NC3COCC3Cc3ccncc3)ccc21 (stereo not drawn) | -1.54
O=C(c1ccccc1Cl)N1C[C@H]2COCC[C@@]2(O)[C@@H]2COCC[C@H]21 | 1.34
CC(C)Sc1oc(-c2cccs2)nc1S(=O)(=O)c1ccc(Cl)cc1 | -0.94

Entries from the list above with a thiophene ring, fused or not:
SMILES | fixLJ activator
CN(C)c1nc2c(c(=O)[nH]1)CCN(C(=O)c1scc3c1OCCO3)C2 | -1.2
COc1cccc(-c2ccc3c(N)c(C(=O)c4ccc(Br)cc4)sc3n2)c1 | -5.05
CCOC(=O)c1c(NC(=O)c2nc(SC)ncc2Cl)sc(C)c1C | -1.58
CC(C)Sc1oc(-c2cccs2)nc1S(=O)(=O)c1ccc(Cl)cc1 | -0.94

Ordered by number of heavy atoms (ascending): 13 of the compounds above.
SMILES | fixLJ activator
Nc1ccc(S(=O)(=O)Nc2ccccn2)cc1 | -0.4
O=C(NCCCO)c1nn(-c2ccc(Cl)cc2)nc1CO | -1.24
CCOC(=O)c1c(NC(=O)c2nc(SC)ncc2Cl)sc(C)c1C | -1.58
CN(C)c1nc2c(c(=O)[nH]1)CCN(C(=O)c1scc3c1OCCO3)C2 | -1.2
COc1ccc(S(=O)(=O)Cc2ccc(C(=O)NC3CCCCC3)o2)cc1 | 0.51
COc1cccc(-c2ccc3c(N)c(C(=O)c4ccc(Br)cc4)sc3n2)c1 | -5.05
Cn1c(=O)n(C)c2cc(S(=O)(=O)NC3COCC3Cc3ccncc3)ccc21 (stereo not drawn) | -1.54
Cc1cccc(C(=O)N2CCCC3(CCC(=O)N(Cc4cnc(C)cn4)C3)C2)c1 (stereo not drawn) | 0.51
CC(Sc1nc(=O)cc(N)n1CCc1ccccc1)C(=O)Nc1ccccc1C#N (stereo not drawn) | -0.75
CC(=O)c1ccc(N2CCN(C(=O)Cn3ncc4c3-c3ccccc3OC4)CC2)cc1 | -1.43
CCc1ccc(C(=O)c2cn(Cc3ccccc3)c3cc(OC)c(OC)cc3c2=O)cc1 | 0.2
COc1ccc(NC(=O)c2ccc3oc(=O)c(S(=O)(=O)c4ccc(F)cc4)cc3c2)cc1OC | -0.41
CCN(CC)S(=O)(=O)c1ccc(C(=O)NCCSc2c(-c3ccc(C)cc3)[nH]c3ccccc23)cc1 | 1.56

Following part
SMILES | fixLJ activator
O=C(CN1CCNC(=O)C1c1cccc(F)c1)NCC1CCCCC1 (stereo not drawn) | 1.36
O=C(CN1C(=O)COc2ccc(S(=O)(=O)N3CCCCCC3)cc21)N1CCN(c2ccc(F)cc2)CC1 | 0.03
CCN(Cc1ccccc1)C(=O)c1cc2c(=O)oc3ccc(C)cc3c2s1 | 0.41
CCc1ccc(C(=O)c2cn(CC(=O)Nc3ccc4c(c3)OCCO4)c3ccc(C)cc3c2=O)cc1 | -0.7
Cc1nn(C(=O)COc2ccccc2Br)c(C)c1Sc1ccccc1 | -1.45
Cc1noc(C)c1S(=O)(=O)N1CCC(C(=O)N2CCN(c3cccc(C(F)(F)F)c3)CC2)CC1 | -1.89
CCOc1ccc(S(=O)(=O)N(CC(=O)NCCc2ccc(OC)cc2)c2ccccc2)cc1 | 0.05
O=C(NC1COCC1Cc1ccnc2ccccc12)C1(N2CCCC2)CCCC1 (stereo not drawn) | -0.76
O=C(Cc1ccc(NC(=O)C2CCOCC2)cc1)NC1CC1 | -0.32
CCOC(=O)C1=C(CN2CCC(C(=O)OCC)CC2)NC(=O)NC1c1ccc(Cl)cc1 (stereo not drawn) | -0.37
C[n+]1c2cc(N)ccc2cc2ccc(N)cc21 | -3.36
COc1ccc(-c2nnc(SCC(=O)N3CCCCC3)o2)cc1 | 1.09
COC(=O)c1c(NC(=O)/C(C#N)=C/c2ccc(OC)cc2)sc2c1CCC2 | 0.46
CCc1ccc(-n2c(N3CCN(c4cccc(Cl)c4)CC3)nc3ccccc3c2=O)cc1 | 0.11
COc1ccc(NC(=O)C2CCCN(S(=O)(=O)c3ccc(F)cc3)C2)cc1 (stereo not drawn) | -0.46
COc1cc(OC)cc(-n2c(=O)[nH]c3cc(C(=O)NCCc4ccc(C)cc4)ccc3c2=O)c1 | -0.96
CC(C)c1ccc(NS(=O)(=O)c2ccc3[nH]cc(C(=O)NCC4CCCO4)c(=O)c3c2)cc1 (stereo not drawn) | -0.05
CCOC(=O)c1c(C)n(-c2ccccc2)c2ccc(OC(=O)c3ccccc3NC(=O)C(C)(C)C)cc12 | 0.08
COc1cc(NC(=O)CCNC(=O)Cn2ccc3ccccc3c2=O)cc(OC)c1OC | 0.24
COc1ccc(C(=O)Nc2ccc3oc(-c4cccnc4)nc3c2)cc1OC | -1.4
Cc1cccn2c(=O)c3cc(C(=O)NC(C)c4ccccc4)c(=N)n(CCCO)c3nc12 (stereo not drawn) | -1.17
CCOC(=O)c1c(NC(=O)C(C)Sc2cn(CCNC(=O)c3ccccc3OC)c3ccccc23)sc2c1CCC2 (stereo not drawn) | 0.48
CCCCC(=O)Nc1ccc(C(=O)NCCc2c(C)n[nH]c2C)cc1 | 0.76
COc1ccc(C(c2c(O)c3ccccc3oc2=O)c2c(C)n(C)n(-c3ccccc3)c2=O)cc1 (stereo not drawn) | -0.63
Cc1ccc(NC(=O)C2CCCN(S(=O)(=O)c3ccc4c(c3)oc(=O)n4C)C2)cc1Cl (stereo not drawn) | -2.17

Going on with the list:
SMILES | fixLJ activator
Cc1nc2nc(NC(=O)c3ccc(C(C)(C)C)cc3)[nH]n2c(=O)c1C | 0
Cn1c(SCc2ccc(F)cc2)nc2ccc(C(=O)NCc3cccc(Cl)c3)cc21 | 0.28
CCNc1nc(C)c(C(=O)NCCc2cn3ccsc3n2)s1 | 0.16
O=C(CCCN1CCCC1=O)NC1COCC1Cc1ccncc1 (stereo not drawn) | -0.3
CCc1c(C)nc2nc(-c3ccccc3)nn2c1NCc1ccc(C)cc1 | -0.92
Brc1ccc(-c2nnc3sc(CN4CCCCC4)cn23)cc1 | -0.14
COc1cccc(C(=O)Nc2ccccc2-c2nc3ccccc3s2)c1 | -2.57
O=C(c1cccc(S(=O)(=O)N2CCCCC2CO)c1)N1CCC1 (stereo not drawn) | 0.22
O=C(c1ccc2c(c1)N(Cc1ccccc1)C(=O)c1ccccc1S2(=O)=O)N1CCCC1 | -2.08
COc1ccc(NC(=O)Cn2cc(S(=O)(=O)c3ccccc3)c(=O)c3cc4c(cc32)OCO4)cc1 | -1.44
CCN(CCCNC(=O)c1nn(-c2ccc(OC)c(Cl)c2)c(=O)c2c1c1ccccc1n2C)c1cccc(C)c1 | -0.79
O=C(c1cc2c(=O)[nH]c3ccccc3c2s1)N1CCN(c2ccc(F)cc2)CC1 | -0.48
CCOc1ccc(Nc2oc(/C=C/c3ccc(F)cc3)nc2C#N)cc1 | -2.18
CCCN1C(=O)C2(c3ccccc31)c1c(oc3ccccc3c1=O)C(=O)N2CCO (stereo not drawn) | -0.81
COCCNC(=O)Cn1nc(-c2ccc(C)cc2)c2ccccc2c1=O | -2.16
CCN(CC)C(=O)C1=C(C)Nc2nc3ccccc3n2C1c1ccc(Cl)cc1 (stereo not drawn) | -0.34
COc1ccccc1NC(=O)c1oc2ccccc2c1NC(=O)c1ccc(S(=O)(=O)N(C)C)cc1 | 1.37
O=C(O)c1ccc(CNC2CCN(c3ccc(F)c(F)c3)CC2)cc1 | -0.49
Cc1ccc2c(c1)N(CCC(=O)NCc1ccccc1Cl)C(=O)CO2 | -1.8
CCn1c(=O)cc(OCC(=O)N(C)c2ccc(OC)cc2)c2ccccc21 | -1.39
CCN1CCCC1CNC(=O)CCCCN1Cc2ccccc2C1=O (stereo not drawn) | -1.01
CN(CCC(=O)N1CCOC(Cc2cccc(F)c2)C1)S(C)(=O)=O (stereo not drawn) | -0.44
CN(Cc1cc(-c2cccs2)n[nH]1)Cc1cn[nH]c1C(=O)O | -0.64
CCC(=O)n1nc(-c2cccnc2)nc1NCc1ccc(F)cc1 | -1.52
O=C(Nc1ccc(Cl)cc1)C1CCC(CNS(=O)(=O)c2ccc(Br)s2)CC1 (stereo not drawn) | -0.58

The list continues.
SMILES | fixLJ activator
CC1CCN(C(=O)c2c(NC(=O)c3ccccc3Cl)sc3c2CCC(C(C)(C)C)C3)CC1 (stereo not drawn) | -0.06
Cc1cccc(C2N=C(N)Nc3nc4ccccc4n32)c1 (stereo not drawn) | -0.34
O=C(CCS(=O)(=O)c1cccc2nsnc12)Nc1ccc(F)cc1 | -0.63
Cc1cccc(N2CCN(C(=O)C3CCCN(S(=O)(=O)c4cccc5nsnc45)C3)CC2)c1C (stereo not drawn) | -0.94
COc1ccc(Cl)cc1N(C)C(=O)C(=O)Nc1ccc2nc3n(c(=O)c2c1)CCCCC3 | -3.2
Cc1cc(CC(=O)N2CCCC(O)(CNC(=O)c3cccs3)CC2)on1 (stereo not drawn) | 2.15
CC1(C2CCNCC2)NC(=O)N(Cc2cccc3ccccc23)C1=O (stereo not drawn) | -0.49
Cc1ccc(N(CC(=O)Nc2ccc(F)cc2F)S(=O)(=O)c2cccs2)cc1 | 0.43
COc1cc(C)c(-c2cccc(C(=O)NC3CCCNC3=O)c2)cn1 (stereo not drawn) | -1.06
Cc1cccc(C)c1Nc1c(-c2ccc(O)cc2)nc2sccn12 | -1.85
COc1ccc(-c2c(C)nn3c(C(F)(F)F)cc(-c4ccccc4)nc23)cc1OC | -0.42
CC(C)CNC(=O)c1cn(C2CCN(c3ccnc(N)n3)CC2)nn1 | -2.17
CCOc1ccc2c(c1)c(=O)c(C(=O)c1ccccc1)cn2Cc1ccccc1 | -0.45
CCOC(=O)c1c(N)n(-c2cc(C)cc(C)c2)c2nc3ccccc3nc12 | -0.95
O=C(NCCC1=CCCCC1)c1ccc2c(c1)N(Cc1ccc(Cl)cc1)C(=O)c1ccccc1S2=O (stereo not drawn) | -1.24
COC(=O)CC1Oc2ccccc2-n2cc(-c3ccc(F)cc3)nc21 (stereo not drawn) | 0.47
COc1ccc(CNC(=O)C2CCCN(S(=O)(=O)c3cccc4nsnc34)C2)cc1 (stereo not drawn) | 0.18
COc1ccc(CCNC(=O)CN(c2ccccc2)S(=O)(=O)N(C)C)cc1OC | -1.51
NS(=O)(=O)c1ccc(CCNc2nc3c(-c4cccc(F)c4)nnn3c3ccc(Cl)cc23)cc1 | -0.49
COc1ccc(OC)c(NC(=O)CN2C(=O)CC(C)Sc3ccccc32)c1 (stereo not drawn) | -0.17
COC(=O)c1c(NC(=O)Cc2coc3cc(C)cc(C)c23)sc2c1CCC2 | -1.25
CCC(C)NC(=O)c1cn(CC)c2ccc(S(=O)(=O)N3CCCCC3)cc2c1=O (stereo not drawn) | -0.1
O=C(c1ccc2c(c1)N(Cc1ccccc1F)C(=O)c1ccccc1S2=O)N1CCCCC1 (stereo not drawn) | -0.46
Cc1ccc(C)c(Cn2c(=O)n(CCCCC(=O)NCc3ccc4c(c3)OCO4)c(=O)c3ccccc32)c1 | -1.89
COc1cc(OC)c(NC(=O)CSc2nccn2C)cc1Cl | 0.19

Going on with the list:
SMILES | fixLJ activator
CCn1c(CN(C)Cc2cc(-c3ccccc3)on2)nnc1C1CC(N)C1 (stereo not drawn) | -1.82
CCCCOc1ccccc1C(=O)N(Cc1cccc(F)c1)C1CCS(=O)(=O)C1 (stereo not drawn) | -0.67
CCC(=O)c1ccc(OCC(=O)NCc2cc(C(C)(C)C)n[nH]2)cc1 | -0.19
CCOC(=O)c1cnc2c(C)cc(C)cc2c1Nc1cccc(C(=O)O)c1 | -1.5
CCCCn1c2ccc(F)cc2c2nnc(SCCN(CC)CC)nc21 | 0.47
Cc1cccc(N2CCN(C3(c4ccccc4)C(=O)c4ccccc4C3=O)CC2C)c1 (stereo not drawn) | -0.17
CCOc1ccc(Cl)cc1C1CC(=O)Nc2cc(OC)c(OC)c(OC)c21 (stereo not drawn) | -0.68
CC1(C(=O)NC2CCN(c3cccnn3)CC2)CC12CCNCC2 (stereo not drawn) | 0.93
COc1ccc(C2C(C(N)=O)=C(C)Nc3nc(SCc4ccccc4Cl)nn32)cc1OC (stereo not drawn) | -0.88
CCc1nn(C)c(NC(=O)N2CCc3ccc(OC)cc3C2C)c1CC (stereo not drawn) | -1.7
Fc1ccccc1-n1ncc2c1ncn1nc(Cc3ccccc3)nc21 | -0.96
